Screening results (PubChem BioAssay)
gsp antag – antagonizes gsp, the McCune-Albright syndrome mutation; gsp-mutant cells, cAMP HTRF, 30 min; control for the full effect not named in the record; Potency, µM (highest dose often 76.9 µM), for inactives: top-dose activity change, negative = inhibition, actives largely listed as inhibitors; 340,000 compounds, 0.4% hits; AID 624288; active = falling curve of any shape with a large fitted effect; inconclusive = falling curve, mostly with a smaller effect; inactive = flat or rising curve; cell line not stated here;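 also: intracellular cAMP measured with PDE inhibitor Ro 20-1724 present during compound exposure; potency is read from the fitted curve at half-maximal effect; % is scaled to controls: 0 for no effect and ±100 for the full control effect; nearly all actives have a fitted effect of over 65% in size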
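Cells, 2000/well, grown 16–24 h in DMEM 10% FBS with 0.5 mg/ml G418, then compounds plus […] (300 uM addition stock), 30 min at 37C. cAMP read by HTRF (cAMP-d2 and anti-cAMP antibody-K in lysis buffer) after 30 min RT.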
Sfp inh – inhibitors of Bacillus subtilis Sfp phosphopantetheinyl transferase; 310,000 compounds, 3.5% hits; Potency, µM, for the others: max response, negative = inhibition, usual class: inhibitors; Biochemical Sfp PPTase activity, qHTS; AID 1490; Q9F4F7; active = well fitted inhibition curve with a large enough effect; inconclusive = small, poorly fitted or top-dose-only effect, or another doubt; inactive = no such curve, though single readings can be large or run the other way;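 also: the enzyme is Sfp with the accession as filed and its product quenches rhodamine fluorescence; potency is read from the fitted curve at half-maximal effect; 0% = enzyme reaction without inhibitor and -100% = no enzyme wells; top concentration of the series not given in the record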
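After 15 min at room temperature with compound, 15 nM Sfp received 5 uM rhodamine-CoA plus 12.5 uM BHQ-2-ybbR (50 mM Hepes pH 7.6, 10 mM MgCl2). Rate came from the fluorescence difference over 30 min, ex 525/em 598 nm.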
Menin MLL FP FL – inhibitors of human menin-MLL interaction, wild-type MLL peptide | Fluorescence polarization, fluorescein-MLL peptide displacement from menin | FP activity change, % at 61.4 µM | 290,000 tested, under 10 active; inconclusive = falling polarisation curve, or a change in total fluorescence; inactive = total fluorescence flat and polarisation flat or rising; no compound was filed as active; the % refers to the polarisation; negative = inhibition;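 also: % of control where 0% means no effect; inhibitors lower the polarisation; unlabelled MLL peptide was the positive control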
TRPV1 PAM – enhances activation of the human vanilloid receptor TRPV1. Q8NER1. TRPV1-expressing cells, Fluo-8 calcium influx, capsaicin EC20 potentiation; host cell line not named in the record; control for the full effect not named in the record. potentiation, % at 8.33 µM. 320,000 compounds, 0.02% hits. AID 540277; active means potentiation above 80%; inconclusive means 30% to 80%; inactive means below 30%; also: 0% is about no effect
Target sequence (Q8NER1 whole entry, looked up): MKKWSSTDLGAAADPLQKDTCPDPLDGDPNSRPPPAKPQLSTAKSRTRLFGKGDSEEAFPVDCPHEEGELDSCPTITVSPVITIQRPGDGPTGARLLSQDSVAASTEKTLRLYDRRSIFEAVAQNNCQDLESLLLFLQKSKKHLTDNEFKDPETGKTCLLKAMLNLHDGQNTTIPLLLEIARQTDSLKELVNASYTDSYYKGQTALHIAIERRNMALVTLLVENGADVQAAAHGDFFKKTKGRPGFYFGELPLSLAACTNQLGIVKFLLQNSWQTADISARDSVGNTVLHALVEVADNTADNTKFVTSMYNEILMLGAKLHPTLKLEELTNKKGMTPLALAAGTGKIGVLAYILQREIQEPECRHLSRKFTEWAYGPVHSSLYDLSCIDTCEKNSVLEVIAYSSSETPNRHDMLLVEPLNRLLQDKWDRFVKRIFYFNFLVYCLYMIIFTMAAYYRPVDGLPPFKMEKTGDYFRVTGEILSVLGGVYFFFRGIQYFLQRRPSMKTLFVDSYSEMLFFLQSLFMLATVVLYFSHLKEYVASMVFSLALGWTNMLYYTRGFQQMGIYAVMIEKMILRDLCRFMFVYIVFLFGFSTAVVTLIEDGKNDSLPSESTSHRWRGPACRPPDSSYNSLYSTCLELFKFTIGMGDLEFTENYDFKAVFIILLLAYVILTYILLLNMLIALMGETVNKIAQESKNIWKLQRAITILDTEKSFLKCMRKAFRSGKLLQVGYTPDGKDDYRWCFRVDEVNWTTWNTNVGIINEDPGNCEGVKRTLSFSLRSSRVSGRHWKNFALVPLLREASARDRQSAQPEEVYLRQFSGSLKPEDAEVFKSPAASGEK
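Fluo-8 calcium influx in TRPV1-expressing cells, kinetic read (ex 480/em 520 nm). Compound added and read 3 min for agonist activity, followed by capsaicin at EC20 final and 2 min further read for enhancement.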
CtBP-E1A blk – blocks the CtBP interaction with E1A; activity change, % (no concentration beside the values); 340,000 compounds, 0.49% hits; AlphaScreen GST-E1A/His-CtBP binding, 1536-well; stronger effect = lower value; control for the full effect not named in the record; in the data active means activity change below about -65%; inconclusive means about -30% to -65%; inactive means above about -30%; also: % is scaled to controls: 0 for no effect and ±100 for the full control effect
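Protein mix (5X: 125 nM each GST-E1A, His-CtBP) was incubated with pinned compound 2 h at 37 deg C in dark, in 50 mM Tris pH 8.0 buffer with 300 mM NaCl. Glutathione donor and nickel acceptor beads followed; AlphaScreen signal read after 1 h.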
gsp ag – activates gsp, the McCune-Albright syndrome mutation; AID 624287; 340,000 compounds, 0.13% hits; gsp mutant cells, cAMP HTRF, 30 min; control for the full effect not named in the record; Potency, µM (highest dose often 76.9 µM), for inactives: at the highest dose activation (cAMP increase), hits mostly activators; active = well fitted activation curve with a large enough effect; inconclusive = small, poorly fitted or top-dose-only effect, or another doubt; inactive = no such curve, though single readings can be large or run the other way; cell line not stated here;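 also: phosphodiesterase inhibitor Ro 20-1724 added with compounds to block cAMP breakdown; potency is read from the fitted curve at half-maximal effect; nearly all actives have a fitted effect of over 60% in size; about a fifth of the inactives were tested at one dose only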
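Cells in DMEM/10% FBS with G418 were pretreated with compounds in DMSO plus […] (300 uM stock) for 30 min at 37C. cAMP was measured by HTRF (cAMP-d2 plus anti-cAMP antibody-K) after 30 min at room temperature.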
ClpP mod – qHTS Assay for Activators of ClpP | ATP-dependent Clp protease proteolytic subunit (Bacillus subtilis (strain 168)), P80244 | purified B. subtilis ClpP, FRET peptide cleavage, 20 min | Potency, µM (highest dose often 57.5 µM), for the others: at the highest dose activity change, negative = active | 340,000 compounds, 1.9% hits | AID 651965, 2013; active = well fitted falling curve with a large enough effect; inconclusive = small, poorly fitted or top-dose-only effect; inactive = no such curve, though single readings can be large or run the other way; also: potency is read from the fitted curve at half-maximal effect; the source files actives as falling curves though it sought activators and does not explain the sign; nearly all actives have a fitted effect of over 65% in size; many hits overshoot -100%
Target sequence (P80244 whole entry, looked up): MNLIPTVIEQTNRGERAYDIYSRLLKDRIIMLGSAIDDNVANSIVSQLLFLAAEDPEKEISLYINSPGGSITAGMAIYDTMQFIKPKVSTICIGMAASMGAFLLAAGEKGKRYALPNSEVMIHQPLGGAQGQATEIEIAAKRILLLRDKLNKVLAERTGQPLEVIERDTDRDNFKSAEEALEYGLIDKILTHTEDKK
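FRET quenching reversal measured ClpP activation: 10 microg/mL B. subtilis ClpP at pH 8 with the FRET-FV decapeptide, read at 430 nm after 320 nm excitation. The 20-min minus 0-min signal was scaled between DMSO/no-enzyme wells and ADEP (5.8 microM final).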
Starred values were filed as active, the others as inactive; ? = inconclusive; · = not tested or not shown; & = joins results of further samples; ! = a repeat was not active; [ ] = remark or other dose.

SMILES | gsp antag | Sfp inh | Menin MLL FP FL | TRPV1 PAM | CtBP-E1A blk | gsp ag | ClpP mod
CC(=O)Nc1cccc(NC(=O)c2ccc(Br)cc2)c1 | -9% | 7% | -1.6 | -15 | 6 | -13% | ·
COc1ccc([N+](=O)[O-])cc1N(CC(=O)N(C)C)S(C)(=O)=O | -10% | 6% | -1.4 | -3 | · | 17%[15.4 µM] | ·
COc1cccc(-c2nn3c(-c4ccccn4)nnc3s2)c1 | 12% | -11% | 3.9 | · | ? | ? | -6.0%
CCN1C(=O)S/C(=C/c2c(OCc3ccc(C(=O)O)cc3)ccc3ccccc23)C1=O | -28% | ? | 5.4 | -12 | -11 | ? | -2.4%
Nc1nonc1N/N=C/c1c(O)ccc2ccccc12 | ? | -5% | -3.3 | -6 | -1 | 3% | ·
Cc1ccn2cc(C(=O)Nc3ccccc3N3CCOCC3)nc2c1 | 0% | -11% | -0.2 | -29 | 4 | -56%[inhibitor] | -2.9%
CCN(CC)c1nc(SCCOC(=O)Nc2ccccc2)nc(N(CC)CC)n1 | -14% | -9% | -1.1 | 2 | 20 | 2% | -3.2%
COCCn1c(SCC(=O)NC(=O)NCc2ccccc2)nc2ccccc21 | -6% | 3% | 3.1 | 15 | -2 | -4% | -1.1%
COc1ccccc1NC(=O)c1cc([N+](=O)[O-])ccc1NCCN1C(=O)CCC1=O | -11% | -9% | -0.5 | -7 | · | 23% | 1.2%
CN(CC(=O)Nc1cccc(F)c1)CC(=O)N1CCCCC1 | 11% | · | · | -7 | -2 | 16% | 0.2%
Cc1cccc(Nc2ccncc2S(=O)(=O)NC(=O)NC(C)C)c1 | -2% | 17%&9%&8% | -2.2 | 11 | 6 | · | 3.1%
COc1cc([N+](=O)[O-])ccc1NC(=O)COC(=O)CCS(=O)(=O)c1ccc(C)cc1 | -6% | · | · | -2 | -24 | -24% | -3.9%
C/C(CC(=O)Nc1ccccc1C(F)(F)F)=N\NC(=O)c1cnccn1 | 5% | · | · | · | -11 | -37%[inhibitor] | 2.4%
NS(=O)(=O)c1ccc(Nc2nc(-c3ccc(F)cc3)cs2)cc1 | ? | 1% | 3.1 | -2 | -1 | 5%[15.4 µM] | ·
COc1ccc(CNC(=O)COC(=O)CCn2c(C)csc2=O)cc1OC | 4% | · | · | -3 | 6 | -16%[15.4 µM] | ·
CCCOC(=O)C1[C@H]2C(=O)N(C(C)c3ccc(OC)cc3)C[C@]23C=C[C@H]1O3 (stereo not given in full) | 12% | 7% | -1.7 | 19 | 10 | 21% | -0.3%
Cn1cc(/C=C(\NC(=O)c2ccccc2Cl)C(=O)NCCCn2ccnc2)c2ccccc21 | 5% | -2% | · | 4 | 0 | 6% | ·
O=C1CC(CC(=O)N/N=C/c2ccccc2[N+](=O)[O-])=NN1 | 3% | -1% | -0.1 | -2 | -6 | -23% | -9.6%
COc1ccc(C(C)=O)cc1CSc1nc2ccccc2c(=O)n1-c1ccccc1 | 22% | -2% | 10 | 1 | -17 | 28% | 1.3%
CCSCCC(NC1=CC(=O)CC(C)(C)C1)C(=O)O (stereo not given) | 5% | 4% | -0.4 | 6 | 6 | -45%[inhibitor] | 0.6%
COc1ccc(C2c3ccc4ccccc4c3Oc3ncn(CCN4CCOCC4)c(=N)c32)cc1 (stereo not given) | 3% | -21% | 1.4 | 10 | -12 | 10% | -1.9%
CCc1ccc(/C=N/NC(=O)Cc2ccc(OC)c(OC)c2)s1 | 11% | -4% | · | -6 | -2 | -27% | 1.4%
CC(C)c1ccc(NC(=S)N2CCCC(c3ccc(F)cc3)=N2)cc1 | 0% | -2% | -4.0 | 3 | -17 | ? | ·
O=C(CSCC(=O)N1CCCCC1)Nc1nc(-c2cccs2)cs1 | -27% | -2% | 4.8 | · | -1 | 3% | 0.5%
COc1ccc(S(=O)(=O)N(C)C)cc1NC(=O)COC(=O)Cn1cnc2ccccc2c1=O | -20% | · | · | -12 | 8 | -3% | 0.3%
COc1ccc(Cl)cc1N(CC(=O)Nc1ccccc1SC)S(C)(=O)=O | -20% | -5% | -0.2 | 9 | 7 | 25% | 0.3%
CC(C)c1ccc(-c2nc(N3CCCC3)nc3n[nH]c(N)c23)cc1 | 10% | 16% | 4.0 | -9 | 0 | 1% | 0.8%
Cc1cccc(NC(=O)c2ccc(C(=O)c3ccccc3)cc2)n1 | -23% | · | · | -17 | 0 | -3% | -2.3%
CC(C)N1C(=O)C(=O)N(CC(=O)N(C)c2ccccc2)C1=O | 4% | · | · | 13 | 2 | -44%[inhibitor] | 0.8%
C=CCN1C(=O)C(Cc2cccc(C)c2)SC1=Nc1ccc(C(=O)O)cc1 (stereo not given) | -15% | 14% | 1.2 | 2 | 6 | 0% | -2.2%
COc1ccc(NC(=O)c2ccccc2-c2ccccc2)cc1 | -11% | 14% | -0.5 | 6 | 12 | 2%[15.4 µM] | ·
COc1cccc(C2(C)NC(=O)N(CC(=O)Nc3ccc(N4CCOCC4)cc3)C2=O)c1 (stereo not given) | 10% | · | · | · | 2 | -13% | 3.3%
O=c1c2ccccc2nc(COc2ccccc2)n1/N=C/c1cn[nH]c1-c1ccccc1 | -22% | -12% | -1.1 | -5 | -1 | -41%[inhibitor] | -1.1%
Cn1c(CCn2ccccc2=O)nc2cc(NC(=O)COc3ccccc3)ccc21 | 7% | 3% | · | -15 | -1 | 27% | -3.0%
CC1CCC(NC(=O)CSc2ccc(S(=O)(=O)N(C)C)cn2)CC1 (stereo not given) | 2% | · | · | -4 | 4 | -40%[inhibitor] | -4.0%
COc1ccc(C(=O)CC(=O)Nc2ccc([N+](=O)[O-])cc2)cc1 | -6% | 0% | 34[activator] | 6 | -16 | 22% | 2.9%
CC(Oc1ccc(F)cc1)C(=O)Nc1cc(C(F)(F)F)ccc1-n1cncn1 (stereo not given) | -15% | · | · | -11 | 3 | ? | 0.6%
CCCN(CCC)c1nc(C#N)nc(N(CCC)CCC)n1 | 10% | -2% | 3.4 | -7 | -1 | 5%[15.4 µM] | -6.4%
CCC(=O)c1ccc(OCC(=O)OCC(=O)Nc2cccc(S(=O)(=O)N3CCCC3)c2)cc1 | -8% | · | · | -5 | 1 | -19% | -1.7%
CSc1nc(C)cc(OCC(=O)N/N=C/c2ccccc2O)n1 | 2% | 14% | 4.0 | -2 | -69* | -19% | -6.1%
CCC(C)c1ccc(NC(=S)NN2CCOCC2)cc1 (stereo not given) | 9% | 6% | 1.5 | -11 | 6 | -6% | 1.9%
COc1cc2nc3n(c(=O)c2cc1OC)-c1cc2ccccc2cc1C(=O)NC3CC(C)C (stereo not given) | · | · | · | · | -25 | ? | -8.1%
CCCC(=O)Nc1nnc(SCC(=O)NC2CC2)s1 | -10% | 8% | -0.1 | 14 | -8 | -2%[15.4 µM] | 1.0%
CC(=O)Nc1ccc(CN2CCCN(C)CC2)cc1 | 3% | -29% | 2.7 | -3 | · | -1% | 0.7%
Cc1cc(Cl)ccc1OCC(=O)OCC(=O)c1c(N)n(C)c(=O)n(C)c1=O | 1% | · | · | -1 | -3 | -3% | -2.1%
CCN(c1ccccc1)S(=O)(=O)c1ccc(C(=O)NCCc2ccc(S(N)(=O)=O)cc2)cc1 | -13% | 13% | -6.0 | -8 | 8 | 9% | ·
CN=C(Nc1cccnc1)c1ccccc1 | 2% | 19% | -0.8 | -3 | -2 | -36%[inhibitor] | -5.4%
CCOc1ccc(N(CC(=O)NCc2ccc(OC)cc2)S(=O)(=O)c2c(C)noc2C)cc1 | 3% | 15% | 8.3 | -17 | -2 | 3% | 1.4%
Cc1ccc(OCCNC(=O)CNC(=O)c2ccc(C)cc2)cc1 | 6% | 0% | · | 17 | 44 | -28% | 2.3%
CCn1ccnc1CN(C)C(=O)CCc1nnc(CCC2CCCCC2)o1 | -6% | -22% | -4.6 | -8 | 3 | -3%[15.4 µM] | ·
CCN(CC)S(=O)(=O)c1ccc2oc(Nc3ccc4c(c3)OCCO4)nc2c1 | -5% | -12% | 1.3 | -3 | -6 | -20% | 1.3%
CCN(C(=O)c1ccc(NC(C)=O)cc1)c1ccccc1C | 1% | -4% | 1.3 | 10 | 5 | 8% | 0.8%
CN(CC(=O)Nc1cccc(Cl)c1)S(=O)(=O)c1ccc2c(c1)n(C)c(=O)c(=O)n2C | -8% | 2% | · | 18 | · | ? | -12%
CCOCCCN(C(=O)c1snc(C(N)=O)c1N)C(C(=O)NC(C)(C)C)c1ccc(Cl)cc1 (stereo not given) | -1% | 8% | -9.2 | -10 | -20 | -21% | ·
COc1ccc2[nH]c(C(=O)Nc3ccc(C)c(F)c3)cc2c1 | 3% | ? | 7.0 | · | 6 | 27% | ·
CCCCCCCCCCCCC/C=C/[C@@H](O)[C@@H](N)CO | 5% | 79µM*! | 4.9&1.2 | 10 | 10 | · | -1.6%
Fc1ccccc1CSc1nnc(Cn2cnc3ccccc32)n1-c1ccccc1 | -15% | 12% | 1.3 | -3 | -1 | -50%[inhibitor] | 2.3%
CC(=O)OCC(=O)C1CCC2C3CC=C4CC(O)CCC4(C)C3CCC12C (stereo not given) | 0% | · | · | 10 | 5 | · | -0.1%
CCOc1ccc(OC(=O)c2cccc(S(=O)(=O)N3CCN(C)CC3)c2)cc1 | 1% | · | · | 9 | 1 | 3%[15.4 µM] | 32µM*
CC1=C(C(=O)Nc2ccccc2C(=O)NCCCN2CCN(C)CC2)SCCO1 | 17% | 12% | -5.0 | 4 | 0 | -2% | -1.5%
O=C(CCc1n[nH]c(=O)[nH]c1=O)N1CCOCC1 | -4% | 8% | 4.3 | 1 | -18 | 14% | -3.6%
CCOc1ccc2c(c1)C(=NNC(=O)c1ccncc1)c1cc(OCC)ccc1-2 | ? | 29% | -0.6 | -19 | 3 | 2%[15.4 µM] | ·
